FGF22 binding: FGF22 (human) thermal shift binding; Q9HCT0; recombinant FGF22 thermal shift, SYPRO orange fluorescence; percent of sucrose octasulfate shift, DMSO zero; calls only at 9.99 µM; 340,000 tested, 1.5% active; AID 651658;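 active means melting point raised past a set limit in the mean and every replicate; three in four hits are not shown here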
Target sequence (Q9HCT0 whole entry, looked up): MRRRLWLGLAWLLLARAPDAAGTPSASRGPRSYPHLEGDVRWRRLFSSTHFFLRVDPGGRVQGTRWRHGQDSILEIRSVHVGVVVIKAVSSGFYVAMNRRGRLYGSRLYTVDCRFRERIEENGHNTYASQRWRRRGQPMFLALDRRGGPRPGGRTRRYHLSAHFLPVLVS
HNF4A DNA FP: change in binding of human HNF4 alpha to DNA | P41235 | HNF4a-FITC DNA binding, fluorescence polarization, 1 h | activity change, % at 10 µM | 360,000 tested, 0.3% active; in the data active means activity change above about 30%, passing the limit was not always enough;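 further: controls were the assay level and a saturating level of protein; the project sought stronger binding though the title names inhibitors; some compounds called inactive have numbers as strong as hits; positive values seem to mean higher polarization but the record does not say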
Target sequence (P41235 whole entry, looked up): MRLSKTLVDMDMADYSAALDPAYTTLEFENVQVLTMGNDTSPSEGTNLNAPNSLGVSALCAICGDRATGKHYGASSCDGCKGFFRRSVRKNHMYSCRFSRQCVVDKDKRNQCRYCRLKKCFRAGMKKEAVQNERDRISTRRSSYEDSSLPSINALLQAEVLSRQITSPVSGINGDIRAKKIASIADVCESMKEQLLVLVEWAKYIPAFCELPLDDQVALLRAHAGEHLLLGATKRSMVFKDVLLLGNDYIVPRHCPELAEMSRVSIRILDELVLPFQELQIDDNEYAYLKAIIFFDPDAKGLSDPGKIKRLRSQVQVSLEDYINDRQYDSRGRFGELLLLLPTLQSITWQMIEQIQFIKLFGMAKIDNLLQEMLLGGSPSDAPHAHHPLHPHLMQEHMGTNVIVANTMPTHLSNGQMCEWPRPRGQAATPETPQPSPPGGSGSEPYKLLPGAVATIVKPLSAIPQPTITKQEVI
Starred values were filed as active, the others as inactive; i = inactive; / = not tested or not shown. Some of the compounds tested. The share of hits here may be higher or lower than overall.

SMILES	FGF22 binding	HNF4A DNA FP
O=C1[C@H]2[C@@H](c3ccc(C(F)(F)F)cc3)N[C@]3(CCCN(Cc4ccc(Cl)cc4)C3=O)[C@H]2C(=O)N1Cc1ccccc1	i	-3.5
O=C1NC[C@H](CCCCN2C[C@H](Cc3ccc(O)cc3)N(CCc3ccccc3)C(=O)C2=O)N(CCC2CCCCC2)C1=O	i	-2.5
CC(=O)Nc1ccc(S(=O)(=O)NN=c2sc3ccccc3n2C)cc1N	i	3.1
COCCNc1nc2cc(-c3ccccc3OC)sc2c(=O)n1C	i	-0.9
CC(NC(=O)C(=O)c1cn(CC(=O)N2CCCC2)c2ccccc12)c1ccccc1 (stereo unspecified)	i	4.7
COc1cccc(C(O)c2nc(-c3cccc(NC(C)=O)c3)cs2)c1 (stereo unspecified)	i	-3.7
Cc1cn([C@H]2C[C@H](O)[C@@H](CNC(=O)[C@@H]3C[C@H](F)CN3)O2)c(=O)[nH]c1=O	i	3.6
COc1cc(CNc2ncnc3c2ncn3[C@H]2CN(Cc3cccc(C(F)(F)F)c3)C[C@@H](CO)O2)cc(OC)c1OC	i	-0.3
CCCCNC(=O)c1[nH]c(C2CCNCC2)nc1-c1cccc(C(F)(F)F)c1	i	3.0
COc1cccc(C(NC(C)=O)c2nc(-c3ccccc3)cs2)c1 (stereo unspecified)	i	2.6
COC(=O)[C@@]12C[C@@H](CC(=O)N3CCN(C(=O)c4ccco4)CC3)C(=O)N(Cc3ccco3)C1=CCC(C)(C)C2	i	2.5
COc1ccc(Cl)cc1NC(=O)C1CC(c2ccccc2Cl)=NO1 (stereo unspecified)	i	0.0
Nc1nc(N2CCCCC2)c2ncn(C3OC(CO)C(O)C3O)c2n1 (stereo unspecified)	i	2.3
O=C(COc1ccc(CNC[C@H]2O[C@@H](n3ccc(=O)[nH]c3=O)[C@H](O)[C@@H]2O)cc1)Nc1nccs1	i	0.1
CN(C)CCN(C)C1CN(Cc2ccc([N+](=O)[O-])cc2)S(=O)(=O)C1 (stereo unspecified)	i	-4.0
O=C1NC[C@@H](CCCCN2C[C@H](Cc3ccc(O)cc3)N(CCc3ccccc3)C(=O)C2=O)N(CCc2ccccc2)C1=O	i	-1.2
COCCNc1nc(Oc2ccccc2)c2sccc2n1	i	-3.7
CC1C(=O)N(Cc2cn(CCC3OCCO3)nn2)CCS(=O)(=O)N1Cc1ccc(-c2cccc(CO)c2)cc1 (stereo unspecified)	/	1.2
COc1ccc(CC(N)c2csc(NC(=O)Cc3ccccc3)n2)cc1 (stereo unspecified)	i	-3.9
COc1ccc(C(O)c2nc(-c3ccccc3)cs2)cc1 (stereo unspecified)	i	1.8
CCCOc1ccc(F)cc1-c1cc(C(=O)NC2CCCCC2)[nH]n1	i	1.4
CCOc1ccc(CCN2C(=S)N([C@@H](CC(C)C)CN3CCC[C@@H]3CN3C(=S)NC[C@@H]3Cc3ccccc3)C[C@@H]2Cc2ccc(O)cc2)cc1	i	-1.5
CCCNC(=O)N[C@H]1C=C[C@H](CC(=O)OC)O[C@@H]1CO	i	2.0
Cc1ccc(Cc2c(C(C)(C)C)nc3cc(C)c(Br)c(C)n23)cc1	i	-0.3

The last three records of the section above lead into the next.
SMILES	FGF22 binding	HNF4A DNA FP
CCOc1ccc(CCN2C(=S)N([C@@H](CC(C)C)CN3CCC[C@@H]3CN3C(=S)NC[C@@H]3Cc3ccccc3)C[C@@H]2Cc2ccc(O)cc2)cc1	i	-1.5
CCCNC(=O)N[C@H]1C=C[C@H](CC(=O)OC)O[C@@H]1CO	i	2.0
Cc1ccc(Cc2c(C(C)(C)C)nc3cc(C)c(Br)c(C)n23)cc1	i	-0.3
COC(=O)[C@@]1(Sc2ccc(C)cc2)CC(=O)N(c2cccc(SC)c2)[C@@H]1c1ccccc1	i	-5.8
COc1ccc(Cc2c(-c3ccccc3)nc3c(C)cc(Br)cn23)c(C)c1	i	11.7
Cc1ccc([C@H]2C[C@H](n3cc(COC(=O)c4ccccc4)nn3)[C@@H](O)CN2C(=O)C2CCCCC2)cc1	i	0.9
O=c1[nH][nH]c2c1[C@H](CCc1cccc(Cl)c1)O[C@H](C1CC1)C2	i	0.4
CC1(C(=O)NS(=O)(=O)C2CC2)CCCN(C(=O)c2ccc(F)cc2Cl)C1 (stereo unspecified)	i	-4.7
CC(C)=CCC[C@H](C)C[C@@H]1CC2=C(C(=O)OC(C)(C)O2)[C@H](c2ccc(F)cc2)O1	i	-0.7
CCCCNC(=O)C1(C)CCN1C(=O)c1cccc(OC(C)=O)c1C (stereo unspecified)	i	0.2
CCSc1ccc(-c2cc(NC=O)c3ncc(-c4cccc(C(=O)NCCN(C)C)c4)n3c2)cc1	i	21.4
CC(C)NC(=O)N(C)C[C@H]1OCCCC[C@H](C)Oc2ccc(NC(=O)NC3CCCCC3)cc2C(=O)N([C@H](C)CO)C[C@@H]1C	i	-1.4
COCCNC(=O)C1CCCN(C(=O)c2sc(-c3ccccc3)nc2C)CC1 (stereo unspecified)	i	4.8
CCc1nc2ccc(C(=O)Nc3cccc(NS(C)(=O)=O)c3)cn2c1N(CC)CCOC	i	2.7
Cc1ccc(S(=O)(=O)N2[C@H](CC(=O)c3cccc4ccccc34)OC[C@@H]2C(C)C)cc1	i	-2.5
O=C1Nc2ccccc2CN2C(=O)c3cc(Cl)ccc3NC(=O)C12 (stereo unspecified)	i	5.8
CCNC(=O)C1(C)CCN(C(=O)c2ccc(F)cc2Cl)C1 (stereo unspecified)	i	7.2
COC(=O)Cn1ccnc1[N+](=O)[O-]	i	-1.5
Cc1ccc(OCCNC(=O)[C@H]2O[C@@H](n3cnc4c(N)ncnc43)[C@H](O)[C@@H]2O)cc1C	i	-3.7
CCOC1=C2[C@H](c3ccc(Cl)cc3)N(S(=O)(=O)c3ccc(C)cc3)C[C@H]2n2c(=O)n(-c3ccccc3)c(=O)n2C1	i	-0.4
CCCCNC(=O)C1(C)CCN1C(=O)c1ccc(OC)c(C(F)(F)F)c1 (stereo unspecified)	i	-4.7
COc1ccc(C(C(=O)NCc2ccccc2)n2c(=O)c(-c3ccccc3)nc3ccccc32)cc1 (stereo unspecified)	i	8.0
CN(C)CCN1CCN(C2CN(Cc3cn(Cc4ccc(F)cc4)nn3)S(=O)(=O)C2)CC1 (stereo unspecified)	i	-1.0
CC1(C(=O)Nc2ccccc2Cc2ccccc2)CCN1CCc1ccccc1 (stereo unspecified)	i	-1.0
COCCCN1C(=O)C(CC(=O)NC(c2ccccc2)c2ccccc2)CC(C(=O)N2CCOCC2)=C1C (stereo unspecified)	i	-2.0
COc1ccc(-c2nc3ccc(Br)cn3c2Cc2ccc(C)cc2)cc1OC	i	19.0
O=C(NCc1cccnc1)c1cc(C(=O)NCc2cccnc2)cc([N+](=O)[O-])c1	i	-0.5

Profiles, looked up by structure. Order of values: FGF22 binding	HNF4A DNA FP
COc1ccc(-c2nc3ccc(Br)cn3c2Cc2ccc(C)cc2)cc1OC in the list: i	19.0
Cc1ccc(OCCNC(=O)[C@H]2O[C@@H](n3cnc4c(N)ncnc43)[C@H](O)[C@@H]2O)cc1C in the list: i	-3.7
COCCCN1C(=O)C(CC(=O)NC(c2ccccc2)c2ccccc2)CC(C(=O)N2CCOCC2)=C1C (stereo unspecified) in the list: i	-2.0
CN(C)CCN1CCN(C2CN(Cc3cn(Cc4ccc(F)cc4)nn3)S(=O)(=O)C2)CC1 (stereo unspecified) in the list: i	-1.0
CC1(C(=O)Nc2ccccc2Cc2ccccc2)CCN1CCc1ccccc1 (stereo unspecified) in the list: i	-1.0

Further structures:
SMILES	FGF22 binding	HNF4A DNA FP
COCCNc1nc(NC(C)C)nc2ccsc12	i	0.0
OC(c1cc(F)cc(Cl)c1)c1ncc(-c2ccccc2C(F)(F)F)[nH]1 (stereo unspecified)	i	18.7
CC(CC(=O)Nc1ccc2c(c1)c(=O)n(C)n2-c1ccccc1)c1ccccc1 (stereo unspecified)	i	1.7
O=C(Nc1ccccc1Cl)c1cc(C2CCCCN2C(=O)C2CCCCC2)on1 (stereo unspecified)	i	2.9
CCCn1c(N)c(C(=O)CSc2nnc(Cc3cccs3)n2C2CC2)c(=O)[nH]c1=O	i	0.9
Cc1cc(Cl)ccc1C(O)c1ncc(-c2cccc(F)c2)[nH]1 (stereo unspecified)	i	2.4
CC(=O)Nc1ccc(NCCc2cccs2)cc1	i	-0.6
N#Cc1ccc(-c2nc3ccc(Br)cn3c2Cc2ccccc2C(F)(F)F)cc1	i	7.3
NC(=O)NN=C1CCN2CCCc3cccc1c32	i	-0.3
COCCNc1nc(NCc2ccc(NC(C)=O)cc2)c2sccc2n1	i	3.6
Cc1ccc2nc(-c3ccccc3)c(Cc3ccccn3)n2c1	i	-0.2
COCC(=O)N(C)C[C@H]1Oc2cc(C#Cc3cccnc3)ccc2S(=O)(=O)N([C@H](C)CO)C[C@H]1C	i	-2.0
COc1ccc(C(O)c2ncc(-c3ccccc3C)[nH]2)cc1 (stereo unspecified)	i	2.8
COc1ccc(Cl)cc1-c1cc(C(=O)Nc2ccc(F)cc2)[nH]n1	i	4.1
Nc1[nH]c(C(=O)c2ccccc2)c(-c2ccccc2C(F)(F)F)c1C(=O)NCc1ccc(F)cc1	i	1.1
N#Cc1cccc(-c2csc(C(O)c3ccco3)n2)c1 (stereo unspecified)	i	4.7
COc1cc(NC(=O)CCNC(=O)N2CC(=O)Nc3ccccc32)cc(OC)c1OC	i	0.8
CC1=C(C(=O)N2CCOCC2)CC(CC(=O)NC2CCCC2)C(=O)N1Cc1ccccc1 (stereo unspecified)	i	-4.7
CN(C)CCN1CCN(C2CN(Cc3cn(Cc4ccc(C(F)(F)F)cc4)nn3)S(=O)(=O)C2)CC1 (stereo unspecified)	i	1.5
O=c1c(-c2ccccc2)nc2ccccc2n1C(c1ccccn1)c1nc2ccccc2[nH]1 (stereo unspecified)	i	-0.4
COc1ccc(CN(C)CCCn2cnc3c(SC)ncnc32)cc1OC	i	0.1
COC(=O)[C@]12CCCCC=C1N(CCc1ccc(OC)c(OC)c1)C(=O)[C@H](CC(=O)N1CCCCC1)C2	i	1.4
C[C@@H]1CN([C@H](C)CO)C(=O)CCCn2nncc2CO[C@H]1CN(C)S(=O)(=O)c1ccc(C#N)cc1	i	0.5
CC1=C(O)c2ccccc2C(=O)C1=O	i	0.4
CCCc1c(-c2cccc(F)c2)ncn1Cc1ccccc1OC	i	-4.7
COc1cccc(CNc2nc(NC(C)C)nc3ccsc23)c1OC	i	5.0
O=C(C[C@H]1C(=O)N(Cc2ccccc2)C[C@@H]1c1ccc(Br)cc1)Nc1ccc(Br)cc1	i	-2.2
Cc1cc(F)ccc1-c1cc(C(=O)NC2CCCCC2)[nH]n1	i	0.0
C[C@H](CO)N1C[C@H](C)[C@@H](CN(C)Cc2ccc(C(=O)O)cc2)Oc2ncc(-c3ccc(C(=O)N(C)C)cc3)cc2C1=O	i	-4.5
Clc1cccc(CNc2ccn3nc(-c4ccc(OCc5ccccc5)cc4)cc3n2)c1	i	3.9
CC1(C(=O)NC2CCCC2)CCN1C(=O)Cc1ccc(-c2ccccc2)cc1 (stereo unspecified)	i	-0.8
C[C@@H]1CN([C@H](C)CO)C(=O)c2cc(NC(=O)Nc3ccc(F)cc3)ccc2O[C@@H](C)CCCCO[C@H]1CN(C)S(=O)(=O)c1cccs1	i	-1.6
CC1(C(=O)NS(=O)(=O)c2ccccc2Cl)CCN1C(=O)CCc1ccc(Cl)cc1Cl (stereo unspecified)	i	-9.4
O=C(Nc1nnc([C@@H]2C[C@H](O)[C@@H](CO)O2)s1)c1cccc2ccccc12	i	-3.7
COCCNC(=O)C1(C)CCCN(C(=O)c2cnc3ccccc3n2)C1 (stereo unspecified)	i	1.7
Cc1cccc2cc(C#N)c(NCCNC(=O)c3ccccc3)nc12	i	1.6
COCc1c(C(=O)Nc2nnc(C3CC3)s2)oc2ccccc12	i	0.6
Cc1cccnc1C(NC(=O)C1CCN(Cc2ccccc2)CC1)c1ccc(F)cc1 (stereo unspecified)	i	1.7
COC(=O)c1cccc(CC2(C)C(=O)Nc3cc(-c4ccccc4Cl)ccc32)c1 (stereo unspecified)	i	-2.2
COc1ccc(NC(=O)c2cccc3c(-c4cccnc4)coc23)cc1	i	-5.2
COc1ccc(C(O)c2ncc(-c3cccc(F)c3)[nH]2)cc1F (stereo unspecified)	i	-2.9
COc1cccc(C(=O)N2CCN(c3nc4cc(C)cc(C)c4cc3C#N)CC2)c1	i	-3.6
CC(C)(C)OC[C@H](NC(=O)c1[nH]cnc1C(=O)Nc1ccccc1F)C(=O)OC(C)(C)C	/	-1.5
CCCCn1c(=S)[nH]c2c(=O)n(C)c(=O)n(C)c21	i	-1.4
O=C(CC[C@H]1O[C@@H](n2cnc3c(NC(=O)c4ccccc4)ncnc32)[C@H](O)[C@@H]1O)N[C@@H](CO)c1ccccc1	i	2.6
Cc1nc(C(F)(F)F)ccc1C(=O)N1CCC1(C)C(=O)NS(=O)(=O)c1cccc(C#N)c1 (stereo unspecified)	i	-2.5
Nc1ncnc2c1nc(-c1ccccc1)n2C1OC(CO)C(O)C1O (stereo unspecified)	i	9.1
CC(=O)NC(c1ccc(F)c(F)c1)c1nc(-c2cccc(C(=O)O)c2)cs1 (stereo unspecified)	i	0.2
Cc1cncc(NCc2cccc(Cl)c2)n1	i	-2.5
Cc1cccc(C)c1NC(=O)C1c2ccccc2OCC(=O)N1Cc1cccnc1 (stereo unspecified)	i	2.1
NC(=O)NN=C1CCC(OCc2ccccc2)CC1CC(=O)O (stereo unspecified)	i	-3.5
CC1Sc2ccc(C(=O)N(CCc3ccccc3)Cc3ccccc3)cc2NC1=O (stereo unspecified)	i	0.5
